# gsp ag – gsp mutant agonism. gsp mutant cells, cAMP HTRF, 30 min; control for the full effect not named in the record. Potency, µM (doses to about 76.9 µM), without a hit: at the highest dose activation (cAMP increase), most hits filed as activators. 0.13% of 340,000 active; active = well fitted activation curve with a large enough effect; inconclusive = small, poorly fitted or top-dose-only effect, or another doubt; inactive = no such curve, though single readings can be large or run the other way; cell line not stated here;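 also: phosphodiesterase inhibitor Ro 20-1724 added with compounds to block cAMP breakdown; potency is read from the fitted curve at half-maximal effect; nearly all actives have a fitted effect of over 60% in size; about a fifth of the inactives were tested at one dose only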
#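 Cells in DMEM/10% FBS with G418 were pretreated with compounds in DMSO plus […] (300 uM stock) for 30 min at 37C. cAMP was measured by HTRF (cAMP-d2 plus anti-cAMP antibody-K) after 30 min at room temperature.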
# Menin MLL FP FL – menin-MLL binding inhibition, fluorescein peptide; Fluorescence polarization, fluorescein-MLL peptide displacement from menin; FP activity change, % at 61.4 µM; 290,000 tested, under 10 active; AID 1766; inconclusive = falling polarisation curve, or a change in total fluorescence; inactive = total fluorescence flat and polarisation flat or rising; no compound was filed as active; the % refers to the polarisation; negative = inhibition;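 also: % of control where 0% means no effect; inhibitors lower the polarisation; unlabelled MLL peptide was the positive control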
# ClpP mod – qHTS Assay for Activators of ClpP. ATP-dependent Clp protease proteolytic subunit (Bacillus subtilis (strain 168)), P80244. purified B. subtilis ClpP, FRET peptide cleavage, 20 min. Potency, µM (highest dose often 57.5 µM), without a hit: at the top dose activity change, negative = active. 1.9% of 340,000 active; active = well fitted falling curve with a large enough effect; inconclusive = small, poorly fitted or top-dose-only effect; inactive = no such curve, though single readings can be large or run the other way; also: potency is read from the fitted curve at half-maximal effect; the source files actives as falling curves though it sought activators and does not explain the sign; nearly all actives have a fitted effect of over 65% in size; many hits overshoot -100%
# Target sequence (P80244 whole entry, looked up): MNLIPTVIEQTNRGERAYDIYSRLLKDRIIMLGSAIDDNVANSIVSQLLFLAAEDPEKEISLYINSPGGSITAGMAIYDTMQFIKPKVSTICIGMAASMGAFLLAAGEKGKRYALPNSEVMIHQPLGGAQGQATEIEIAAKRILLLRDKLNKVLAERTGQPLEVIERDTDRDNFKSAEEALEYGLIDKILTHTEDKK
#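 FRET quenching reversal measured ClpP activation: 10 microg/mL B. subtilis ClpP at pH 8 with the FRET-FV decapeptide, read at 430 nm after 320 nm excitation. The 20-min minus 0-min signal was scaled between DMSO/no-enzyme wells and ADEP (5.8 microM final).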
# gsp antagonist – gsp mutant antagonism. gsp-mutant cells, cAMP HTRF, 30 min; control for the full effect not named in the record. Potency, µM (series often up to 76.9 µM), inactives show top-dose activity change, negative = inhibition, usual class: inhibitors. 0.4% of 340,000 active; active = falling curve of any shape with a large fitted effect; inconclusive = falling curve, mostly with a smaller effect; inactive = flat or rising curve; cell line not stated here;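 also: intracellular cAMP measured with PDE inhibitor Ro 20-1724 present during compound exposure; potency is read from the fitted curve at half-maximal effect; % is scaled to controls: 0 for no effect and ±100 for the full control effect; nearly all actives have a fitted effect of over 65% in size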
#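 Cells, 2000/well, grown 16–24 h in DMEM 10% FBS with 0.5 mg/ml G418, then compounds plus […] (300 uM addition stock), 30 min at 37C. cAMP read by HTRF (cAMP-d2 and anti-cAMP antibody-K in lysis buffer) after 30 min RT.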
# CtBP-E1A inh – inhibitors of CtBP/E1A interaction | AlphaScreen GST-E1A/His-CtBP binding, 1536-well; stronger effect = lower value; control for the full effect not named in the record | AID 651724 | 0.49% of 340,000 active | activity change, % (test concentration not listed); in the data active means activity change below about -65%; inconclusive means about -30% to -65%; inactive means above about -30%; also: % is scaled to controls: 0 for no effect and ±100 for the full control effect; compound concentration not given in the record
#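 Homogeneous bead-based format: GST-tagged E1A captured on glutathione donor beads, His-tagged CtBP on nickel acceptor beads; compounds precede bead addition by 2 h at 37 °C.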
# Sfp PPTase inh – blocks B. subtilis Sfp PPTase activity | AID 1490 | Q9F4F7 | Biochemical Sfp PPTase activity, qHTS | Potency, µM, for the others: max response, negative = inhibition, actives largely listed as inhibitors | 3.5% of 310,000 active; active = well fitted inhibition curve with a large enough effect; inconclusive = small, poorly fitted or top-dose-only effect, or another doubt; inactive = no such curve, though single readings can be large or run the other way;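 also: the enzyme is Sfp with the accession as filed and its product quenches rhodamine fluorescence; potency is read from the fitted curve at half-maximal effect; 0% = enzyme reaction without inhibitor and -100% = no enzyme wells; top concentration of the series not given in the record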
#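 Sfp 15 nM + cpd, 15 min RT; start w/ rhodamine-CoA 5 uM, BHQ-2-YbbR 12.5 uM (final); 50 mM Hepes pH 7.6, 10 mM MgCl2, 0.01% NP-40, 0.01% BSA; read 525/598 nm at 0 and 30 min.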
# TRPV1 PAM – potentiators of human vanilloid receptor 1 (TRPV1); potentiation, % at 8.33 µM; TRPV1-expressing cells, Fluo-8 calcium influx, capsaicin EC20 potentiation; host cell line not named in the record; control for the full effect not named in the record; 0.02% of 320,000 active; active means potentiation above 80%; inconclusive means 30% to 80%; inactive means below 30%; also: 0% is about no effect
# Target sequence (Q8NER1 whole entry, looked up): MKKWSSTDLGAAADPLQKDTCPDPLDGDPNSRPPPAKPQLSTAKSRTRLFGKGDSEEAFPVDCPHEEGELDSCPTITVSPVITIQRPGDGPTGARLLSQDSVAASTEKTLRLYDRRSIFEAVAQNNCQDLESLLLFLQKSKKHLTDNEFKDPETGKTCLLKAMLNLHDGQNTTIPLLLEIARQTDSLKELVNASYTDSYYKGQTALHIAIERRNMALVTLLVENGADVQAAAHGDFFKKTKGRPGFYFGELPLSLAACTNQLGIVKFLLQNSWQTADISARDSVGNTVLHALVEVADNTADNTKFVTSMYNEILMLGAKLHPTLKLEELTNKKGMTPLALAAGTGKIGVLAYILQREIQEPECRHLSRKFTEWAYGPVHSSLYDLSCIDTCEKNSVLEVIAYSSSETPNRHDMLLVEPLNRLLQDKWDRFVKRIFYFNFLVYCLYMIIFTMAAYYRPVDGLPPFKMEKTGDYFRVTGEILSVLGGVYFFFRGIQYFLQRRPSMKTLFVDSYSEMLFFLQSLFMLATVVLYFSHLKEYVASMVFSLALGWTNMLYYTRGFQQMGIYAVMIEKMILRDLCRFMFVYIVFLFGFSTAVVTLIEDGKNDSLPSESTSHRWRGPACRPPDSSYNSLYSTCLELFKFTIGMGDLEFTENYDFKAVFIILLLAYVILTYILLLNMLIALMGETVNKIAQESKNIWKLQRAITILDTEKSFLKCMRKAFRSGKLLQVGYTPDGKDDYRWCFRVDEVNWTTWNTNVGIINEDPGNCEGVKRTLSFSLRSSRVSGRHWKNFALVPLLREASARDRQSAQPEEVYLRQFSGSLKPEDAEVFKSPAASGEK
#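 TRPV1-expressing cells were cultured overnight at 35.5C and loaded with Fluo-8 calcium dye for 40 to 90 min at room temperature. After a 10 s baseline, compound was added and calcium influx was read kinetically for 3 min (ex 480/em 520 nm).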
# * = called active by the depositor; ? = inconclusive; nt = no result given; & = joins results of further samples; [ ] = dose if it differs, or a comment. Rows were taken by chance (roughly 5.3% active in at least one column).
entry	SMILES	gsp ag	Menin MLL FP FL	ClpP mod	gsp antagonist	CtBP-E1A inh	Sfp PPTase inh	TRPV1 PAM
1	CCCCC1=CC2=CC(=O)C(C)(OC(=O)CC)C(=O)C2=CN1C1CCCCC1 (centres undefined)	nt	-2.7[11.7 µM]	-3.9%	0.2%	-2.3	3.6%&-1.2%	18.2
2	O=C(Nc1ccc(S(=O)(=O)N2CCN(Cc3ccccc3)CC2)cc1)c1cnccn1	-6.5%	0.5	-3.9%	-18.2%	-3.9	9.9%	-3.4
3	COc1nnc(-c2ccc(C)c(S(=O)(=O)N(C)C)c2)c2ccccc12	-6.2%	-4.0	-0.2%	-8.8%	-28.1	11.2%	19.2
4	COCCCN(C(=O)c1cc2c(s1)CCC2)c1c(N)n(Cc2ccccc2)c(=O)[nH]c1=O	0.4%	1.3	0.2%	1.4%	-1.5	-21.2%	10.8
5	O=c1c2cc([N+](=O)[O-])ccc2nc2n1CCCC2	15.1%[15.4 µM]	-2.5	-0.6%	-4.2%	1.6	-4.2%	9.2
6	Cc1ccc(S(=O)(=O)NNC(=O)NC23CC4CC(CC(C4)C2)C3)cc1	1.2%	5.6	3.3%	?	-1.6	16.2%	1.8
7	O=C(Nc1cccc(-n2cnnn2)c1)C1CCCN(Cc2cccc(C(F)(F)F)c2)C1 (centres undefined)	-2.8%[15.4 µM]	nt	-2.8%	-11.2%	-3.0	4.1%	-8.2
8	CCCCC(c1nnnn1C(C)C)N1CCN(C(=O)c2ccco2)CC1 (centres undefined)	-1.9%[15.4 µM]	4.8	-1.0%	1.5%	2.4	-24.1%	2.7
9	COc1ccccc1N1CCN(Cc2cc(=O)c(OCC(=O)NC(C)C)co2)CC1	20.3%	nt	1.0%	7.8%	12.8	6.7%	3.2
10	CCCSc1nsc(NC(=O)Nc2ccc(F)cc2F)n1	-17.1%	1.9	-0.7%	-16.4%	nt	12.7%	-1.1
11	C/C(=C\C(=O)OCCCCCCCCC(=O)O)C[C@@H]1OC[C@H](C[C@@H]2O[C@H]2[C@@H](C)[C@H](C)O)[C@@H](O)[C@H]1O	nt	5.0	-0.4%	-3.7%	5.4	24.7%	nt
12	Nc1nonc1-n1nnc(C(=O)N/N=C/c2cccs2)c1CSc1ccccc1	-18.9%	-1.8	-6.4%	-20.9%	1.1	7.9%	-5.9
13	COC(=O)C1=C(O)C(C(=O)OC)C(c2ccc(C)cc2)C(C#N)(C#N)C1c1ccc(C)cc1 (centres undefined)	2.8%	3.2	-1.0%	?	-0.3	31.4%[activator]	-6.6
14	N#Cc1c(-c2ccc3c(c2)OCO3)cc[nH]c1=O	6.0%	7.8	-10.7%	?	nt	12.3%	3.0
15	COc1ccc(Cl)cc1-c1nc(SCC(=O)N(C)C2CCS(=O)(=O)C2)n[nH]1 (centres undefined)	-0.3%	nt	nt	0.8%	0.0	nt	nt
16	CC1CC(OC(=O)c2ccccc2C(=O)c2ccc(Cl)cc2)C(=O)O1 (centres undefined)	20.8%[15.4 µM]	nt	-2.3%	-10.4%	0.0	nt	nt
17	CC(C)N(Cc1ccccc1)C(=O)CSc1nccn1C	-26.1%	-0.3	-1.0%	5.8%	nt	18.6%	-7.6
18	CC(C)(C)NC(=O)CCn1nc(-c2ccc(Cl)cc2)c2ccccc2c1=O	-25.9%	-0.1	-2.1%	-15.9%	nt	-3.6%	?
19	O=C(NC1=NCCS1)c1cccc(OC(F)F)c1	-4.0%	-3.6	2.5%	8.4%	9.1	6.3%	-7.3
20	COc1ccc2c3c([nH]c2c1)C(C)N(C(C)=O)CC3 (centres undefined)	3.2%	-6.7	-15.5%	-8.4%	nt	20.1%	15.7
21	NC(=O)c1ncn([C@@H]2O[C@H](CNCc3cccn3-c3ccncc3)[C@@H](O)[C@H]2O)n1	nt	nt	-3.4%	-9.3%	0.0	nt	nt
22	Cc1ccnc2nc(C(=O)OCC(=O)NC(=O)NCc3ccco3)nn12	?	-6.2	0.2%	12.5%	nt	18.0%	1.9
23	COc1cc2c(cc1NC(=O)C(C)N1CCN(S(=O)(=O)c3ccc(C)c(C)c3)CC1)oc1ccccc12 (centres undefined)	30.8%	-0.2	3.16µM*	12.2%	0.0	6.2%	6.5
24	O=C(Nc1ccccc1N1CCN(C(=O)c2ccc(Cl)cc2)CC1)c1ccc(Br)cc1	32.6%	-0.2	-17.8%	-4.8%	-22.8	14.0%	-15.4
25	COc1ccccc1C(=O)Nc1ccc(CN2CCCCC2)cc1	-3.9%	3.6	2.0%	0.4%	3.0	22.3%	-41.5
26	COc1cc(NCc2ccccc2)c2ncn(C(C)C)c2c1	-31.0%	nt	-0.2%	-4.7%	-13.5	nt	-11.8
27	CC(=O)c1cccc(Nc2nc(=O)c3cccnc3s2)c1	?	5.7	-2.2%	4.0%	0.7	19.0%	6.7
28	Cc1cccc(NC(=O)c2oc(=O)c3ccccc3c2-c2ccccc2)c1C	-58.5%[inhibitor]	0.4	-3.8%	-27.8%	23.2	0.1%	-0.8
29	C=CCN=c1scc(-c2ccccc2)n1/N=C/c1ccccn1	-44.3%&-30.1%[inhibitor]	1.5	0.9%	-2.6%&-16.4%	?	-28.7%	-20.7
30	Cc1nn(CCc2nn[nH]n2)c2nc(-c3ccc(Br)cc3)cc(C(F)(F)F)c12	64.8%[15.4 µM]	5.1	nt	-2.0%	5.0	1.7%	8.5
31	Cc1ccc(C)c(Sc2ccc(NC(=O)CCN3C(=O)NC4(CCCC4)C3=O)cc2)c1	1.9%	nt	-0.8%	-0.8%	-4.7	nt	1.1
32	Cc1ccc(S(=O)(=O)N(C)C)cc1NC(=O)c1ccccc1Br	7.1%[15.4 µM]	3.0	nt	nt	-14.0	14.0%	-4.3
33	CCCc1cc(=O)[nH]c2nnc(SCC(=O)Nc3ccc4c(c3)OCCO4)n12	-4.6%[15.4 µM]	nt	-1.5%	-10.6%	2.0	nt	-0.5
34	Cn1nc(-c2ccc(Cl)cc2)cc1NC(=O)CC(C)(C)CC(=O)O	-45.8%[inhibitor]	3.3	-3.0%	3.8%	-5.5	15.6%	8.0
35	Cc1ccc(-n2nc3c(=O)n(C(C)C(=O)NCCC4=CCCCC4)nc(C)c3c2C)cc1 (centres undefined)	-43.6%[inhibitor]	1.8	0.5%	?	nt	9.7%	3.9
36	COc1ccc(CCNC(=O)Cc2cc(=O)[nH]c(=O)[nH]2)cc1OC	-21.9%	-3.6	2.8%	14.2%	-2.0	8.4%	7.2

# Fetched by structure from the entries so far:
entry	SMILES	gsp ag	Menin MLL FP FL	ClpP mod	gsp antagonist	CtBP-E1A inh	Sfp PPTase inh	TRPV1 PAM
25	COc1ccccc1C(=O)Nc1ccc(CN2CCCCC2)cc1	-3.9%	3.6	2.0%	0.4%	3.0	22.3%	-41.5
31	Cc1ccc(C)c(Sc2ccc(NC(=O)CCN3C(=O)NC4(CCCC4)C3=O)cc2)c1	1.9%	nt	-0.8%	-0.8%	-4.7	nt	1.1

# Next results follow:
entry	SMILES	gsp ag	Menin MLL FP FL	ClpP mod	gsp antagonist	CtBP-E1A inh	Sfp PPTase inh	TRPV1 PAM
37	CC1CCC2(CC1)NC(=O)N(CC(=O)N(Cc1ccccc1)C(C)(C)C)C2=O (centres undefined)	0.3%	nt	0.2%	26.6%	1.3	nt	7.1
38	CCCN1CCN(C2CCCCC2NS(=O)(=O)c2ccc(Cl)cc2)CC1 (centres undefined)	20.5%	-6.6	0.1%	13.3%	-4.2	-4.2%	7.9
39	Cn1c(=O)c2c(nc(CCc3ccccc3)n2C)n(C)c1=O	?	nt	nt	11.6%	-12.4	nt	nt
40	Cc1ccc(CNC(=O)CSc2nc3ccccc3c(=O)n2CCCO)cc1	5.6%	-2.0	-1.6%	-5.8%	5.1	9.4%	?
41	CC(=O)c1ccc(-c2ccc(C(=O)N3CCCc4ccccc43)o2)cc1	-5.4%[15.4 µM]	0.9	nt	nt	19.2	-6.5%	-19.0
42	C/C(=N\NC(=O)c1nnn(-c2nonc2N)c1C)c1ccc(OCc2ccccc2)cc1	-3.4%	nt	2.2%	9.4%	nt	4.1%	27.2
43	COCCN(C(=O)COC(=O)c1cccnc1Cl)c1c(N)n(Cc2ccccc2)c(=O)[nH]c1=O	-5.7%[15.4 µM]	nt	1.1%	10.1%	9.7	nt	-6.9
44	O=C(c1nc2nc(-c3ccccc3)cc(C(F)(F)F)n2n1)N1CCOCC1	20.4%	0.9	28.2µM*	5.0%	-6.2	-2.7%	1.1
45	COc1cc2[nH]cc(C(=O)NCc3cccs3)c(=O)c2cc1OC	-44.3%[inhibitor]	nt	?	13.3%	-72.6*	nt	nt
46	COc1ccc(NC(=O)Cn2c(=O)c(C)nc3ccccc32)cc1Cl	11.4%[15.4 µM]	4.0	nt	-6.7%	8.3	8.2%	nt
47	Cc1ccc2c(c1)C(=O)C(=O)N2CCCOc1ccccc1	3.1%	2.3	-0.9%	6.4%	-2.0	20.6%	-10.4
48	COc1cccc(NC(=O)Nc2nnc(-c3ccccc3SCc3ccccc3)s2)c1	-0.2%	3.2	-23.3%	-5.4%	12.1	-25.2%	8.9
49	O=C(COc1ccc2ccccc2c1)NNC(=O)[C@@H]1CCCC[C@@H]1C(=O)O	0.7%	5.0	-1.8%	3.6%	-0.2	12.5%	3.8
50	CCSc1nnc(NC(=O)C2CCN(S(=O)(=O)c3cc(C(F)(F)F)ccc3Cl)CC2)s1	9.0%[15.4 µM]	0.0	-2.2%	0.1%	-2.9	0.7%	17.7
51	Cc1ccc(/C=C/C(=O)NCc2cccs2)cc1	-4.3%	-1.2	-2.3%	4.4%	2.9	?	-4.0
52	CN(C[C@H](Cc1ccccc1)N(CCN(CCc1ccccc1)N=O)N=O)N=O	nt	2.8	1.6%	-3.4%	-11.5	3.8%	14.3

# Limited to CtBP-E1A inh, for some of the entries so far:
cpd	mol	CtBP-E1A inh
49	O=C(COc1ccc2ccccc2c1)NNC(=O)[C@@H]1CCCC[C@@H]1C(=O)O	-0.2
50	CCSc1nnc(NC(=O)C2CCN(S(=O)(=O)c3cc(C(F)(F)F)ccc3Cl)CC2)s1	-2.9
51	Cc1ccc(/C=C/C(=O)NCc2cccs2)cc1	2.9
52	CN(C[C@H](Cc1ccccc1)N(CCN(CCc1ccccc1)N=O)N=O)N=O	-11.5
